# Assay outcomes as filed in PubChem BioAssay.
# gsp antag – antagonists of gsp mutant (McCune-Albright syndrome); gsp-mutant cells, cAMP HTRF, 30 min; control for the full effect not named in the record; Potency, µM (highest dose often 76.9 µM), without a hit: at the highest dose activity change, negative = inhibition, most hits filed as inhibitors; hit rate 0.4% among 340,000; AID 624288; active = falling curve of any shape with a large fitted effect; inconclusive = falling curve, mostly with a smaller effect; inactive = flat or rising curve; cell line not stated here;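 also: intracellular cAMP measured with PDE inhibitor Ro 20-1724 present during compound exposure; potency is read from the fitted curve at half-maximal effect; % is scaled to controls: 0 for no effect and ±100 for the full control effect; nearly all actives have a fitted effect of over 65% in size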
#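 G418-selected cells were plated in DMEM/10% FBS for 16-24 h at 37C, then treated with compounds plus the PDE inhibitor […] (300 uM solution added) for 30 min at 37C. Intracellular cAMP was measured by HTRF after 30 min lysis at room temperature.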
# ClpP mod – qHTS Assay for Activators of ClpP | ATP-dependent Clp protease proteolytic subunit (Bacillus subtilis (strain 168)), P80244 | hit rate 1.9% among 340,000 | purified B. subtilis ClpP, FRET peptide cleavage, 20 min | AID 651965, 2013 | Potency, µM (series often up to 57.5 µM), for inactives: at the top dose activity change, negative = active; active = well fitted falling curve with a large enough effect; inconclusive = small, poorly fitted or top-dose-only effect; inactive = no such curve, though single readings can be large or run the other way; also: potency is read from the fitted curve at half-maximal effect; the source files actives as falling curves though it sought activators and does not explain the sign; nearly all actives have a fitted effect of over 65% in size; many hits overshoot -100%
# Target sequence (P80244 whole entry, looked up): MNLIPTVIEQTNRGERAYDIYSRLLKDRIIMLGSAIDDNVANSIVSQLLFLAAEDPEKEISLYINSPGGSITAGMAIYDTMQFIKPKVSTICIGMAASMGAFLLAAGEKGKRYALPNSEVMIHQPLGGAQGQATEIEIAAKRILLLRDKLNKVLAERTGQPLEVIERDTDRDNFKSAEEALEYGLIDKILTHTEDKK
#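 Purified B. subtilis ClpP, 10 microg/mL final in Tris/HCl pH8 with KCl, BSA, glycerol and Tween-20, cleaved an Abz/nitrotyrosine-quenched decapeptide. Fluorescence (ex 320, em 430) was read at 0 and 20 min at room temperature. Delta was normalized to 5.8 microM ADEP and DMSO/no-enzyme controls.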
# Sfp inh – inhibitors of Bacillus subtilis Sfp phosphopantetheinyl transferase. Biochemical Sfp PPTase activity, qHTS. Potency, µM, without a hit: max response, negative = inhibition, actives largely listed as inhibitors. hit rate 3.5% among 310,000; active = well fitted inhibition curve with a large enough effect; inconclusive = small, poorly fitted or top-dose-only effect, or another doubt; inactive = no such curve, though single readings can be large or run the other way;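 also: the enzyme is Sfp with the accession as filed and its product quenches rhodamine fluorescence; potency is read from the fitted curve at half-maximal effect; 0% = enzyme reaction without inhibitor and -100% = no enzyme wells; top concentration of the series not given in the record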
#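 Sfp 15 nM + cpd, 15 min RT; start w/ rhodamine-CoA 5 uM, BHQ-2-YbbR 12.5 uM (final); 50 mM Hepes pH 7.6, 10 mM MgCl2, 0.01% NP-40, 0.01% BSA; read 525/598 nm at 0 and 30 min.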
# gsp ag – agonists of gsp mutant (McCune-Albright syndrome). gsp mutant cells, cAMP HTRF, 30 min; control for the full effect not named in the record. Potency, µM (doses to about 76.9 µM), without a hit: top-dose activation (cAMP increase), actives largely listed as activators. hit rate 0.13% among 340,000. AID 624287; active = well fitted activation curve with a large enough effect; inconclusive = small, poorly fitted or top-dose-only effect, or another doubt; inactive = no such curve, though single readings can be large or run the other way; cell line not stated here;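 also: phosphodiesterase inhibitor Ro 20-1724 added with compounds to block cAMP breakdown; potency is read from the fitted curve at half-maximal effect; nearly all actives have a fitted effect of over 60% in size; about a fifth of the inactives were tested at one dose only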
#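 Cells stably selected in G418 were plated at 2000/well, grown 16-24 hr, then given compounds in DMSO with the PDE inhibitor […] (300 uM solution added) for 30 min at 37C; cAMP was read by HTRF.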
# PINK1 modulator – modulators of PINK1 expression | Potency, µM (titrated, usually from 76.6 µM), for inactives: top-dose activation (PINK1 increase), actives largely listed as activators | AID 624263 | hit rate 0.2% among 410,000 | PINK1 immunofluorescence, high-content cytometry, 24 h; active = well fitted activation curve with a large enough effect; inconclusive = small, poorly fitted or top-dose-only effect; inactive = flat fitted curve, though single readings scatter; cell line not stated here;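 also: potency is read from the fitted curve at half-maximal effect; % of control where 0% means no effect; nearly all actives have a fitted effect of over 65% in size; a mitochondrial uncoupler was the plate control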
#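 Measures PINK1 amount and localization on or inside mitochondria by immunofluorescence. Stable cells get compounds at 5 concentrations for 24 hours before fixation and staining; CCCP controls included.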
# Menin MLL FP FL – inhibitors of human menin-MLL interaction, wild-type MLL peptide; AID 1766; Fluorescence polarization, fluorescein-MLL peptide displacement from menin; 290,000 tested, under 10 active; FP activity change, % at 61.4 µM; inconclusive = falling polarisation curve, or a change in total fluorescence; inactive = total fluorescence flat and polarisation flat or rising; no compound was filed as active; the % refers to the polarisation; negative = inhibition;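 also: % of control where 0% means no effect; inhibitors lower the polarisation; unlabelled MLL peptide was the positive control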
# D2 agonist – human D2 receptor agonism in beta-arrestin assay; P14416; DiscoveRx PathHunter D2 beta-arrestin, luminescence, 90 min; 100% = 57 uM dopamine signal; activation, % (test concentration not listed); hit rate 0.084% among 360,000; AID 624465; in the data active = activation above about 40%; inconclusive = about 15% to 40%; inactive = below about 15%; also: compound concentration not given in the record; the text of the record calls up to 30% inactive
# Target sequence (P14416 whole entry, looked up): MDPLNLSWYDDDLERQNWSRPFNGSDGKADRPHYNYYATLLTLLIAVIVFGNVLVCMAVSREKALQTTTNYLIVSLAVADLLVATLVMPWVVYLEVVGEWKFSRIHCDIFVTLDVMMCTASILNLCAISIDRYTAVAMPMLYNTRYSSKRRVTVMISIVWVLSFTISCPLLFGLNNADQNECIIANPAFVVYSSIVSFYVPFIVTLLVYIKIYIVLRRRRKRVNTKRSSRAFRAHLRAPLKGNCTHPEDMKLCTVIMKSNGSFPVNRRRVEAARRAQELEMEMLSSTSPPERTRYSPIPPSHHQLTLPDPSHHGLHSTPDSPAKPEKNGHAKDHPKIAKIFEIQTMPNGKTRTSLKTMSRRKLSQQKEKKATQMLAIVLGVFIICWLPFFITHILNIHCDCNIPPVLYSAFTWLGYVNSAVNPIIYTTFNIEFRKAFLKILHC
#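 DiscoveRx PathHunter D2 beta-arrestin cells (2,100/well) attached overnight, then compound-stimulated 90 min at 37 C in HBSS/10 mM HEPES/0.1% Tween-20 buffer; beta-galactosidase complementation read by luminescence after 1 h at ambient temperature. Dopamine 57 uM final (EC100) as control.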
# Numbers without * were called inactive; u = inconclusive; x = no result given; & = joins results of further samples; [ ] = dose if it differs, or a comment.
structure	gsp antag	ClpP mod	Sfp inh	gsp ag	PINK1 modulator	Menin MLL FP FL	D2 agonist
COc1ccc(CC(=O)O/N=C(\N)c2ccccn2)cc1	8%	x	14%	6%	0.0%	1.8	-0.5
Cc1cccc(Oc2ccc(S(=O)(=O)N3CCCCC3)cc2NC(=O)C2=COCCO2)c1	-7%	-9.0%	x	u	4.0%	x	-1.1
CCN1CCN(c2ncc(C(=O)Nc3c(F)cc(F)cc3Br)c3ccccc23)CC1	7%	-9.0%	-18%	-20%	1.5%	2.3	-5.7
CCN(C(=O)CSc1nnnn1-c1ccccc1)C1CCS(=O)(=O)C1 (stereo unspecified)	8%	x	0%	-13%[15.4 µM]	1.0%	-5.3	-0.5
O=C(Cn1ccnc1[N+](=O)[O-])N(CCO)CCO	x	0.4%	x	32%	2.2%	x	-7.9
COc1cccc(Oc2c(C)oc3c(CN4CCOCC4)c(O)ccc3c2=O)c1	7%	3.8%	x	2%	1.1%	x	-2.6
CN(Cc1ccccc1)c1nc(N)c([N+](=O)[O-])c(Nc2cccc(F)c2)n1	6%	-0.8%	-5%	3%	x	2.0	-0.9
Cc1sc2nc(CN(Cc3ccccc3)C(=O)NC3CCCCC3)[nH]c(=O)c2c1C	-20%	-3.6%	x	-72%[inhibitor]	22%[38.3 µM]	x	-0.8
Cc1cccc(NC(=O)COC(=O)CNC(=O)C2CCCCC2)c1	2%	1.4%	16%	-52%[inhibitor]	-0.7%	-1.3	-1.5
O=S(=O)(c1cccc(Br)c1)N1CCN(C(=S)NCC2CCCO2)CC1 (stereo unspecified)	1%	-2.6%	x	6%	5.2%	x	3.8
Cc1cc(OCCN2CCOCC2)ccc1C(C)C	-19%	0.6%	-30%	8%[15.4 µM]	3.8%	-22	-2.0
CCCn1c(C(O)c2ccc(OC)cc2)nc2ccccc21 (stereo unspecified)	-15%	-4.2%	3%	27%	0.5%	1.6	-0.1
CCC1CN(C(=O)NCc2ccccc2)c2cc(Cl)ccc2O1 (stereo unspecified)	0%	1.9%&2.8%	14%	-3%	0.6%&1.8%	-0.8	3.7
COc1ccc(C(=O)NNC(=O)CN2CCC(n3nnc4cc(F)ccc43)CC2)cc1	5%	1.2%	8%	-41%[inhibitor]	-0.9%	-8.8	-6.6
Cc1c(C=O)c(=O)n(-c2ccccc2)n1-c1ccccc1	0%	1.4%	-10%	18%	2.3%	4.7	-4.5
CCOC(=O)c1ccccc1OCc1cc(/C=N/n2cnnc2)ccc1OC	-1%	-3.6%	7%	-16%	9.5%[38.3 µM]	0.8	-0.6
Cc1ccc(NC2OC(CO)C(O)C2O)cc1[N+](=O)[O-] (stereo unspecified)	11%	-2.1%	-3%	-3%[15.4 µM]	0.5%	0.3	-0.9
Cc1ccc(S(=O)(=O)N2CCC(=O)c3ccccc32)cc1	x	u	x	-6%	6.8%	x	-5.0
CCC1CCCCN1C(=O)CN1C(=O)c2ccccc2S1(=O)=O (stereo unspecified)	13%	x	x	-11%[15.4 µM]	-1.4%	x	-0.6
COc1ccc(S(=O)(=O)c2c(N)n(Cc3ccco3)c3nc4ccccc4nc23)cc1	-12%	16µM*	56µM*	-18%	4.4%	u	-3.0
NCCCn1c(C(=O)c2cc(Cl)c(N)c(Cl)c2)c2ccc(C(F)(F)F)cc2[n+]1[O-]	3%	0.3%	x	2%	-0.2%	x	-0.6
O=C(Nc1cccc(F)c1)c1cc(S(=O)(=O)N2CCOCC2)cs1	-7%	x	-8%	1%[15.4 µM]	0.9%	5.9	-1.2
O=C(NCc1ccccn1)Nc1ccccc1	13%	0.1%	19%	-7%	1.6%	-0.3	0.3
COc1ccc(-c2nnc(SCC(=O)Nc3sc4c(c3C#N)CCCC4)n2-c2ccccc2)cc1	11%	1.2%	23%	2%	12%[38.3 µM]	2.7	-1.7
CC(=O)Nc1ccc(N(C(=O)Cn2nnc3ccccc32)C(C(=O)NC2CCCC2)c2ccc(O)c(O)c2)cc1 (stereo unspecified)	3%	x	-14%	-29%	4.0%	1.4	3.2
c1nc(NCCN2CCOCC2)c2cc(-c3ccoc3)ccc2n1	x	x	34%[activator]	x	-0.5%	0.3	x
Cc1ccccc1-n1c(-c2ccc(=O)[nH]n2)n[nH]c1=S	5%	x	71µM*	-1%	3.0%	0.1	-0.3
COc1ccc(C(C(=O)NCc2ccc(F)cc2)N(Cc2cccnc2)C(=O)c2snc(C(N)=O)c2N)cc1 (stereo unspecified)	-9%	x	6%	7%[15.4 µM]	-0.6%	x	1.4
Cc1ccc(OCC(=O)NCCCNC(=O)c2ccco2)cc1C	8%	x	27%	7%	0.7%	2.7	3.9
O=C(Cc1c(F)c(F)c(F)c(F)c1F)OC12CC3CC(C1)C(=O)C(C3)C2	2%	1.4%	5%	-14%	-4.4%[38.3 µM]	-0.9	-0.5

# More compounds.
structure	gsp antag	ClpP mod	Sfp inh	gsp ag	PINK1 modulator	Menin MLL FP FL	D2 agonist
CC(C(=O)NCc1ccccn1)N1C(=O)c2ccccc2C1=O (stereo unspecified)	14%	0.9%	10%	-3%	u	-2.0	-1.9
CCN(CC(=O)NCc1cccs1)C(=O)CCOc1ccccc1	9%	1.4%	x	27%[15.4 µM]	-1.1%	x	0.2
CCOC(=O)/C(C#N)=C/C1=C(N2CCCC2)CC(C)(C)OC1	-12%	0.4%	15%	-57%[inhibitor]	-0.3%	0.5	-3.2
Cc1cc(O)c(C(C)C)cc1NC(=S)Nc1cc(C(C)C)c(O)cc1C	28µM*	1.8%	x	-1%	0.4%	x	6.8
CCN(c1ccccc1)S(=O)(=O)c1ccc(C(=O)Nc2nnc(COC)o2)cc1	0%[15.4 µM]	-0.8%	13%	29%	-2.5%	0.5	-3.6
COCCNC(=O)CCn1nc(-c2ccc(C)cc2)c2ccccc2c1=O	-11%	x	4%	18%[15.4 µM]	0.5%	-6.4	3.4
Cc1ncc([N+](=O)[O-])n1CC(=O)Nc1ccccc1Cl	x	0.7%	x	-69%[inhibitor]	0.1%	x	-3.6
O=C(Cc1ccc(Br)cc1)Nc1nc2ccccc2[nH]1	6%	-1.8%	16%	30%	4.6%	6.6	-1.3
O/N=C/c1cc(Br)ccc1OCc1ccccc1F	u	1.7%	x	-31%[inhibitor]	3.9%	x	-1.1
Cc1[nH]nc2c(=S)[nH]c(=O)[nH]c12	x	-6.0%	x	13%	-0.3%	x	-10
CCOc1ccccc1C=NNC(=O)CCCCC(=O)NN=Cc1ccccc1OCC	-2%	-8.4%	x	-25%	3.5%	x	-0.8
CC(=O)c1cccc(S(=O)(=O)N2CCC(C(=O)OC3CCOC3=O)CC2)c1 (stereo unspecified)	-11%	-0.8%	x	0%	2.0%	x	2.8
O=C(COC(=O)c1ccc2ncsc2c1)NCc1ccc(F)cc1	1%	-6.2%	x	0%	9.9%	x	-2.4
N#CCCN(CCC#N)S(=O)(=O)c1ccc(C(=O)Nc2nc(-c3ccccc3)c(C(=O)c3ccccc3)s2)cc1	-5%	-1.8%	14%	u	4.4%	6.0	-4.1
C[C@H](CO)N1C[C@H](C)[C@@H](CN(C)Cc2ccncc2)Oc2c(NC(=O)Cc3ccccc3)cccc2C1=O	-14%	-4.0%	x	24%	2.2%	x	-3.2
CC(OC(=O)c1cc(Br)ccc1O)C(=O)Nc1ccc(S(=O)(=O)N2CCCC2)cc1 (stereo unspecified)	u	-20%	x	0%	16µM*	x	-3.6
CC(Oc1ccc(Br)cc1)C(=O)Nc1ccncc1 (stereo unspecified)	-3%	x	20%	9%[15.4 µM]	-0.4%	3.6	-2.7
CC(C)Oc1ccccc1OCCCOc1cccc2cccnc12	-3%	x	-1%	4%	-0.6%	0.1	-0.1
Clc1cccc(Cl)c1CNCCCSc1ncccn1	10%	-1.3%	-8%	-8%	-1.7%	-6.7	-5.8
CCOc1ccc(CCNC(=O)CCS(=O)(=O)c2ccc(C)cc2)cc1OCC	0%	-1.1%	5%	-57%[inhibitor]	0.7%	0.3	3.6
CCOC(=O)c1nnn(-c2nonc2N)c1CSc1ccccc1	-5%	-0.9%	11%	-33%[inhibitor]	-4.0%	-2.2	-2.5
CN(C)c1cc(N/N=C/c2ccccc2C(F)(F)F)nc(N(C)C)n1	-8%	x	-11%	-2%	4.9%	-0.2	-2.5
CCOc1ccc(S(=O)(=O)NC2CCCCC2C)cc1 (stereo unspecified)	9%	0.9%	x	-12%	1.5%	x	-2.2
O=C(Nc1ccc(Cl)c(Cl)c1)c1ccc(Cl)c(Cl)c1	-11%	0.3%	2%	28%	9.0%	-1.2	13
Clc1ccc(N2CCN(c3ccnc(Cl)n3)CC2)cc1	u	0.0%	x	-1%[15.4 µM]	0.4%	x	-2.5
COc1ccc(CCNC(=O)CSC2=NS(=O)(=O)c3ccccc3N2)cc1OC	6%	-2.6%	x	28%	0.4%	x	0.3
COc1ccc(C2CC2/C(=N/O)c2ccccc2)cc1 (stereo unspecified)	x	x	0%	5%[15.4 µM]	1.1%	3.7	10
Cc1ccc(NC(=O)Cn2c(C)cc(C)c(C#N)c2=O)c(Cl)c1	0%	-12%	19%	-22%	-3.9%[38.3 µM]	-0.3	-4.5

# Some of the entries so far, with values under each structure:
# Values run as follows: gsp antag	ClpP mod	Sfp inh	gsp ag	PINK1 modulator	Menin MLL FP FL	D2 agonist
CN(C)c1cc(N/N=C/c2ccccc2C(F)(F)F)nc(N(C)C)n1
    -8%	x	-11%	-2%	4.9%	-0.2	-2.5
Cc1[nH]nc2c(=S)[nH]c(=O)[nH]c12
    x	-6.0%	x	13%	-0.3%	x	-10

# Not a hit list, and some 5.1% of all compounds hit somewhere here.
